AmpC nodet inh: Promiscuous and Specific Inhibitors of AmpC Beta-Lactamase (assay without detergent) | P00811 | actives 1.8% (n = 71,000) | AID 585, 2007 | AmpC nitrocefin hydrolysis, absorbance 480 nm, no detergent; potencies from a single point are estimates | Potency, µM (highest dose often 28.7 µM), for the others: at the top dose activity change, negative = inhibition; active = falling curve, for most hits resting on a single point; inconclusive = weak or doubtful change; inactive = flat or rising curve; also: % of control where 0% means no effect; about half of the hits show no inhibition at the top dose; a quarter of the inactives give rising signals
Target sequence (P00811 whole entry, looked up): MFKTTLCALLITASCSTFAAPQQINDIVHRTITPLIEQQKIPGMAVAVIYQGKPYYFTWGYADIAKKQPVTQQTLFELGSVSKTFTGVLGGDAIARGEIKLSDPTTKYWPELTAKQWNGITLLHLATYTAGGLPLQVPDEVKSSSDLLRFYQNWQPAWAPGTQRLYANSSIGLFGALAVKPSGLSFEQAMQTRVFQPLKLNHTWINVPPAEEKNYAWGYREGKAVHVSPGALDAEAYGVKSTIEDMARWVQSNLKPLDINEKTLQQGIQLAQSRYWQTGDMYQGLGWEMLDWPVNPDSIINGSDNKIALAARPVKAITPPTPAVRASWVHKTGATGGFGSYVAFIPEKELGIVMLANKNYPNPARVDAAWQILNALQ
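AmpC in 20 mM phosphate buffer pH 7.0 was preincubated 15 min at room temperature with compounds. Nitrocefin (800 uM stock) was then added and hydrolysis followed at 480 nm every 20 s for 4 min.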
* = called active by the depositor; ? = inconclusive; & = joins results of further samples; [ ] = another dose, or the depositor's remark. Potency is read from the fitted curve at half-maximal effect.

Compound | AmpC nodet inh
CC(C)(C)c1ccc(NC(=O)CC2(C(F)(F)F)OCCO2)cc1 | 2%
C=CCn1c(=O)c2ccccc2n2c(SCc3c(C(=O)OCC)oc4ccccc34)nnc12 | 95%
CCc1nnc(NC(=O)CCC(=O)N2CCN(CCOc3ccc(C)cc3)CC2)s1 | -18%
Cn1cnnc1SCC(=O)Nc1sccc1C#N | -24%
O=C(CCCCn1c(=O)[nH]c2ccccc2c1=O)N1CCN(c2ncccn2)CC1 | 4µM*[single pt active]
Cc1c(NC(=O)COc2ncnc3c(Cl)cc(Cl)cc23)c(=O)n(-c2ccccc2)n1C | 40%
CC1=C(C(=O)OCc2ccccc2)C(c2ccccn2)c2c(n(C)c(=O)n(C)c2=O)N1 (stereo not drawn) | 104%
CC(C)N1CC2=C(OC(N)=C(C#N)C2c2cccnc2)/C(=C/c2cccnc2)C1 (stereo not drawn) | 15%
N#Cc1nc(-c2ccccc2F)oc1NCc1cccc2c1OCO2 | 13%
CCN(CC)c1ccc(C2NC(=O)NC(C)=C2C(=O)Nc2ccccc2)cc1 (stereo not drawn) | 31%
O=C(O)C1C2C=CC3(CN(C/C=C/c4ccccc4)C(=O)C13)O2 (stereo not drawn) | 0%
COc1cc(SC)ccc1C(=O)Nc1ccc2c(c1)OCCO2 | 29%
Cc1cc(C)nc(SCC(=O)Nn2cnnc2)n1 | -2%
O=C(O)c1cccc(NC(=O)c2cccc(S(=O)(=O)N3CCCCC3)c2)c1 | -9%
CCCN1C(=O)C2(/C(=C(\O)c3ccc4c(c3)OCCO4)C(=O)C(=O)N2CCCOC)c2ccccc21 (stereo not drawn) | -5%
O=c1[nH]c(=O)n([C@H]2C[C@H](O)[C@H](CO)O2)cc1/C=C\Br | 11%
O=C(c1ccco1)N1CCN(C(c2ccccc2)c2nnnn2Cc2cccs2)CC1 (stereo not drawn) | 55%
CCCCNC(=O)c1cc(-c2ccc(OC)cc2)on1 | 7%
COc1ccc(C2C(C(=O)NCc3cccnc3)c3ccccc3C(=O)N2C)cc1OC (stereo not drawn) | 5%
CCOC(=O)c1sc2ccc(S(=O)(=O)N3CCOCC3)cc2c1N | 39%
c1ccc(Nc2nc(-c3ccoc3)nc3ccccc23)cc1 | -6%
COc1cc2cc(C)c(SCC(=O)N3CCOCC3)nc2cc1OC | 62%
Nc1nc(SCc2ccc3c(c2)OCCO3)n[nH]1 | -14%
CC(C)O | -9%
Cc1ccc(OCC(O)CNS(=O)(=O)c2ccccc2C(=O)N2CCCCC2)cc1 (stereo not drawn) | 82%
O=S(=O)(c1ccccc1)N1CCC[C@@]2(CCN(Cc3cc(C(F)(F)F)cc(C(F)(F)F)c3)C2)C1 | -9%
CCCC1C2CN(C(C)=O)CC=C2C(C#N)=C(N)C1(C#N)C#N (stereo not drawn) | -1%
CC(=O)NCCOc1ccc(C(=O)O)cc1 | 112%
c1cnc(N2CCN(Cc3ccc4c(c3)OCO4)CC2)nc1 | 41%
c1ccc(-c2n[nH]c3ccccc23)cc1 | 6%
CCC(=O)N1c2ccc(S(=O)(=O)CCC(=O)N3CCN(c4ccccc4)CC3)cc2CC1C (stereo not drawn) | 94%
Nc1ccccc1C(=O)OCCOc1ccccc1 | -7%
CCCc1nc(-c2ccccc2O)n(-c2ccccc2)n1 | 6%
COc1cc2c(cc1OC)C(C(=O)O)C(c1ccc(C)o1)N(C)C2=O (stereo not drawn) | 2%
CCn1c(SCC(N)=O)nc2c(c1=O)C1(CCCC1)Cc1ccccc1-2 | 86%
CCOC(=O)N1CCC(NC(=O)c2ccc(CNS(=O)(=O)c3ccc(F)cc3)cc2)CC1 | 11%
Cc1c(C(O)CN2CCC(C(N)=O)CC2)c2ccccc2n1C (stereo not drawn) | -6%
CCOC(=O)C1CCN(C(=O)C2(NC(=O)Nc3ccccc3Cl)CCCCC2)CC1 | 28%
CCOC(=O)CC(=O)CSc1nc2c(c(C)c1C#N)CCC2 | 13%
CCC(C)(C)NC(=O)C(c1cccn1C)N(Cc1ccc(C)cc1)C(=O)Cn1nnc2ccccc21 (stereo not drawn) | 0%
COc1ccc(C2CC(c3c(Cl)cccc3Cl)n3nc(N)nc3N2)cc1 (stereo not drawn) | 4µM*[single pt active]
N#Cc1c(NC(=O)CSc2ncc(-c3ccccc3)n2CC2CCCO2)sc2c1CCCC2 (stereo not drawn) | 19%
CCn1cnc2scc(-c3ccccc3)c2c1=O | 47%
COc1c2c(nc3ccccc13)O[C@H]([C@@](C)(O)CO)C2 | -11%[12.8 µM]
Cc1ccccc1C(=O)Nc1ccc2c(c1)OCO2 | -2%
Cc1ccc2ncccc2c1NS(=O)(=O)c1ccccc1 | -5%
Cc1n[nH]c(C)c1S(=O)(=O)N1CCCC(C(=O)Nc2ccc3c(c2)OCCO3)C1 (stereo not drawn) | 16%
NC(=O)c1sc2nc3c(c(-c4cccs4)c2c1N)CCCC3 | 36%
CC(C)(C)c1cc(C(=O)O)nn1-c1ccccc1 | -13%
O=C(O)c1cccc(NS(=O)(=O)c2cccc3cccnc23)c1 | -1%
Clc1cc(Cl)cc(Cl)c1 | -2%
Cc1nc2ccc(C(C(F)(F)F)(C(F)(F)F)C(F)(F)F)cc2[nH]1 | ?
O=C(c1cnn2c(C(F)(F)F)cc(-c3ccco3)nc12)N1CCCCCC1 | 10%
Cc1cccc(OCc2nnc(SCC(=O)c3cccs3)n2C)c1C | 49%
CCOC(=O)/C=c1\s/c(=C\c2ccc3c(c2)OCCO3)c(=O)n1CC(=O)NCC1CCCO1 (stereo not drawn) | 53%
CCOC(=O)N1CCN(Cc2nc3c(c(=O)n(C)c(=O)n3C)n2Cc2ccc(F)cc2)CC1 | 56%
O=C(C1CCCCC1)N(CCN1CCCC1)c1nc2ccccc2s1 | -1%
O=C1CC(N2CCC(c3nc4ccccc4o3)CC2)C(=O)N1c1ccc(Cl)cc1 (stereo not drawn) | 96%
Cc1cccc(NC2=NC3(CCCCC3)N=C(N)N2)c1C | -12%
Cc1cccc(-c2nsc(SCC(=O)Nc3nccs3)n2)c1 | ?

Continued:
Compound | AmpC nodet inh
O=C(NC1CCCC1)C(c1cccs1)N(C(=O)c1ccno1)c1ccccc1 (stereo not drawn) | 10%
CC1(C)CC(=O)C(C=NCCCO)=C(O)C1 | -3%
CC(CCc1ccccc1)C(=O)NO (stereo not drawn) | 0%
O=C(NCc1ccc2c(c1)OCO2)C1CCN(S(=O)(=O)c2ccc(Br)s2)CC1 | -23%
Cc1cnc(CNc2nc(-c3ccccc3C)nc3ccccc23)cn1 | 18%
Cc1ccc(N(C(C)C(=O)O)S(=O)(=O)c2cccnc2)cc1 (stereo not drawn) | -1%
COc1ccc(OC)c(N=c2oc3cc(O)ccc3cc2C(N)=O)c1 | 10%
Cc1cc(Nc2cc(C)on2)n2ncnc2n1 | -5%
CCCCCCn1cnc2c(c1=O)c1nc3ccccc3nc1n2/N=C/c1ccco1 | 7%
O=C(CN(C(=O)Cn1nnc(-c2cccs2)n1)c1cnc2ccccc2c1)NCC1CCCO1 (stereo not drawn) | 74%
c1ccc(OCCSc2nnc3sc4ccccc4n23)cc1 | 17%
CC(=O)c1cccc(N(CC(=O)O)S(C)(=O)=O)c1 | 5%
O=C1CSC(=NC(=O)c2ccccc2)N1 | -8%
O=C(NCc1cccnc1)Nc1cccc(NC(=O)NCc2cccnc2)c1 | -12%
CCOc1ccc2nc(C)cc(C(=O)O)c2c1 | -17%
N#Cc1nc(-c2ccccc2F)oc1NCCc1ccccn1 | 1%
COCc1cc(=O)n2c(-c3ccccc3OC)n[nH]c2n1 | -11%
C=CCn1c(SCC(=O)Nc2ccc(C(=O)OCC)cc2)nnc1-c1sc(N)nc1C | 64%
COc1ccc2c(c1)CCc1c(C(=O)Nc3c(C)n(C)n(-c4ccccc4)c3=O)noc1-2 | -12%
Cc1ccc(-c2nc(N)n(C(=O)c3cccnc3)n2)cc1 | -8%
COCCCNC(=O)COc1ccc(Cl)c(C)c1 | 19%
CC(NS(C)(=O)=O)C(c1cccs1)N1CCN(Cc2ccccc2)CC1 (stereo not drawn) | 25%
O=C(Oc1ccccc1)N1CCC[C@@]2(CCN(Cc3nccs3)C2)C1 | -1%
OCCN(Cc1ccccc1)CC1CCCCC1 | 10%
CCNc1nc(NCC)nc(-n2nc(C)cc2C)n1 | 4%
CCN(C(=O)CSc1nnc(-c2ccccc2Cl)n1C1CCCC1)C1CCS(=O)(=O)C1 (stereo not drawn) | 98%
CSc1nc2nc(-c3ccccc3)cc(C(F)(F)F)n2n1 | -3%
CCc1noc2c1/C(=N\O)CC(c1ccccc1)C2 (stereo not drawn) | -15%
Cc1ccc(C2C(C#N)=C(N)Oc3c2oc(CO)cc3=O)o1 (stereo not drawn) | -12%
C=CCn1c(N)c(S(=O)(=O)c2cccs2)c2nc3ccccc3nc21 | -22%

The closing 2 compounds of the part above lead into the next:
Compound	AmpC nodet inh
Cc1ccc(C2C(C#N)=C(N)Oc3c2oc(CO)cc3=O)o1 (stereo not drawn)	-12%
C=CCn1c(N)c(S(=O)(=O)c2cccs2)c2nc3ccccc3nc21	-22%
O=c1c2c(nc3nc(CCc4ccccc4)[nH]n13)CCC2	-2%
COc1cccc(-n2nnnc2SCC(=O)NCCc2ccccc2)c1	9%
O=S(=O)(c1ccc(F)cc1)N1CCC(N2CCN(c3ccccc3)CC2)CC1	-5%
COC(=O)c1ccc(C(/C=C/[C@@H](C)C(=O)NCc2cc(C)n(C)n2)NC(=O)OCc2ccccc2)cc1 (stereo partly drawn)	125%
CCC(=O)Nc1cc2c(cc1C(C)=O)OCCO2	11%
CCOc1ccc(C(=O)COC(C)=O)cc1	2%
CCCOc1ccc(C2c3c(oc4cc(C)c(C)cc4c3=O)C(=O)N2CCCN(C)C)cc1 (stereo not drawn)	142%
COc1ccc(CCNC(=O)Cn2cnc3c(cnn3C(C)(C)C)c2=O)cc1OC	12%
CSc1nnnn1-c1ccc(C(=O)OCC(=O)N2CCOCC2)cc1	17%
CCCCCn1c(SCC(=O)OCC)nc2cc(C(=O)NCc3ccco3)ccc2c1=O	-15%
Cc1cccc(N2CCN(C3=NC(=O)C(=C4CCCCC4)S3)CC2)c1	14%
CCOC(=O)Cn1nc(-c2ccccc2)nc1-c1ccccc1	22%
O=C(c1cccs1)N1CCOCC1	6%
O=C(NCc1ccccn1)Nc1ccc(F)cc1	-14%
Cc1noc(C)c1C(=O)Nc1sc2c(c1C(N)=O)CCCCC2	-4%
CC(C)Oc1ccc(NC(=O)c2ccncc2)cc1	6%
CCCCNC(=O)c1ccc(NS(=O)(=O)c2ccccc2)cc1	7%
CN(C)c1ccc(-c2nc3ccccc3n2C)cc1	17%
COc1ccc(-c2nc3cnc(N4CCOCC4)nc3n(-c3ccccc3)c2=O)cc1	-1%
Cc1nn(-c2ccccc2)c2nc(-c3ccco3)cc(C(=O)O)c12	-17%
Cc1ccc(S(=O)(=O)N2CCOCC2)cc1C(=O)Nc1nc(-c2cccnc2)cs1	83%
CC(C)(C)c1ccccc1OCCCCCNCCO	29%
COC(=O)c1ccccc1NC(=O)CN1C(=O)c2ccccc2S1(=O)=O	4%
CCCOC1CCCN(C(=O)c2cc(Cl)c(Cl)cc2C(=O)O)C1 (stereo not drawn)	-6%
CCOc1ccc(N2CC(C(=O)Nc3ccccc3OC)CC2=O)cc1 (stereo not drawn)	49%
CC(C)N=C(NC#N)SCc1ccc(F)cc1	-8%
COc1cccc(CNC(=O)CN(c2cc(C)cc(C)c2)S(=O)(=O)c2c(C)noc2C)c1	53%
Cc1cccc2cc(CN(Cc3ccco3)C(=O)c3ccncc3)c(=O)[nH]c12	21%
Cc1cc(OCn2ccc(C(=O)O)n2)ccc1Cl	-4%
N[C@@H]1CCN(O)C1=O	6%&4%
O=C(OCCNC(=O)c1ccc2ccccc2n1)c1cccnc1	8%
CCCCCOC(=O)Cn1c(SCC(=O)Nc2ccccc2)nc2c1c(=O)[nH]c(=O)n2C	4%
CC(C)(C)c1ccccc1NC(=O)c1ccco1	-12%
CCOCCCNCC(=O)Nc1ccccc1N1CCOCC1	-5%
O=C(COC(=O)C1CC(=O)N(c2ccc3c(c2)OCCO3)C1)Nc1ccc2c(c1)CCC2 (stereo not drawn)	64%
CCOc1ccccc1N(CC(=O)N1CCOCC1)S(=O)(=O)c1ccccc1	29%
CCOC(=O)CSc1nnc(CNC(=O)c2ccco2)n1-c1ccc(F)cc1	11%
CC(C)C[C@@H](CC(=O)N[C@H](CC(=O)N[C@@H]1CCCC[C@H]1C(=O)N[C@H](CC(=O)N[C@@H](CCC(=O)O)CC(=O)O)Cc1c[nH]c2ccccc12)C(C)C)NC(=O)[C@@H]1CCCC[C@H]1N	142%

By substructure, those above with two or more sulfur atoms
Compound	AmpC nodet inh
Cn1cnnc1SCC(=O)Nc1sccc1C#N	-24%
CCOC(=O)c1sc2ccc(S(=O)(=O)N3CCOCC3)cc2c1N	39%
N#Cc1c(NC(=O)CSc2ncc(-c3ccccc3)n2CC2CCCO2)sc2c1CCCC2 (stereo not drawn)	19%
NC(=O)c1sc2nc3c(c(-c4cccs4)c2c1N)CCCC3	36%
Cc1cccc(OCc2nnc(SCC(=O)c3cccs3)n2C)c1C	49%
Cc1cccc(-c2nsc(SCC(=O)Nc3nccs3)n2)c1	?
O=C(NCc1ccc2c(c1)OCO2)C1CCN(S(=O)(=O)c2ccc(Br)s2)CC1	-23%
c1ccc(OCCSc2nnc3sc4ccccc4n23)cc1	17%
C=CCn1c(SCC(=O)Nc2ccc(C(=O)OCC)cc2)nnc1-c1sc(N)nc1C	64%
CC(NS(C)(=O)=O)C(c1cccs1)N1CCN(Cc2ccccc2)CC1 (stereo not drawn)	25%
CCN(C(=O)CSc1nnc(-c2ccccc2Cl)n1C1CCCC1)C1CCS(=O)(=O)C1 (stereo not drawn)	98%
C=CCn1c(N)c(S(=O)(=O)c2cccs2)c2nc3ccccc3nc21	-22%
Cc1ccc(S(=O)(=O)N2CCOCC2)cc1C(=O)Nc1nc(-c2cccnc2)cs1	83%

A portion of the library; rates above refer to the full screens.
